# PrP 5UTR inh: inhibition of PrP 5' UTR reporter expression; cell-based PrP 5' UTR mRNA reporter, plate reader; inhibition, % (no concentration beside the values); actives 0.35% (n = 340,000); AID 488862;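 active = every replicate at 50% or more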;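 note: 0 = median of the neutral control wells; tested in H4 reporter cells; numbers are from one replicate; inactives centre near -14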
# BJeLR viability: kills HRASV12-expressing BJeLR cells | actives 0.17% (n = 300,000) | BJeLR (HRASV12) viability, CellTiter-Glo ATP luminescence, 48 h; reference of the scale not given here | inhibition, % (test concentration not listed) | AID 1554;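 active = replicate mean above 50%; inconclusive = above 50% but judged a plate artefact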;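 note: 50 nL library stock added to about 25 µL; numbers are from one replicate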
# ugtP null kill: compounds lethal to S. aureus RN4220 ugtP deletion mutant | growth inhibition, % (test concentration not listed) | AID 1259309 | OD600 growth, 16 h; some inactives read as strong as hits | actives 0.54% (n = 330,000);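 active = z-score under -3 and OD600 up to 0.15 on both plates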;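 note: plate controls were untreated wells for no effect and antibiotic for full effect; wells of about 80 µL received 100 nL stock; the first replicate is given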
# RN4220 kill: kills Staphylococcus aureus RN4220. S. aureus RN4220 growth, OD600, 16 h. inhibition, % (test concentration not listed). actives 0.33% (n = 330,000);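 active = z-score of -3 or lower and OD600 up to 0.18 on both plates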;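 note: plate controls were untreated cells for no effect and reference antibiotic for full effect; stock transfer was 100 nL into about 80 µL; one replicate is shown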
# Bead autofluor: compound fluorescence in toxin protease inhibitor counterscreen | AID 624483 | fluorescence intensity (test concentration not listed) | compound autofluorescence counterscreen, microsphere flow cytometry; active compounds read high | actives 3.1% (n = 360,000);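 active = at least 3 SD above the mean of all compounds, about 16000 in these data; inconclusive = too few beads counted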;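 note: 100 nL of 1 mM stock went into each well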
# Mtb hypoxia rep: reduces hypoxia-regulated biosensor signal in M. tuberculosis; actives 0.1% (n = 300,000); M. tuberculosis hypoxia-regulated fluorescent reporter, fluorescence; fluorescence inhibition, % (test concentration not listed);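 active = 35 to 45% if threefold the growth effect, above 45% if 1.5-fold the growth effect; inactive = the rest, general growth blockers included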;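 note: wells of about 50 µL received 100 nL stock; 0% = vehicle wells and 100% = reference inhibitor wells; whole bacteria with a GFP reporter of the hypoxia response; strong numbers were not always called active; many hits fall short of the cut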
# Mtb hypoxia rep growth: second read-out of Mtb hypoxia rep, no call of its own (marks repeat the call); growth inhibition, %; measured here: M. tuberculosis growth (absorbance);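 0% = vehicle and 100% = reference antibiotic; read after six days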
# Starred values were filed as active, the others as inactive; ? = inconclusive; / = not tested or not shown. Outcome played no part in choosing rows; about 3.9% have a hit in one of these screens.
SMILES,PrP 5UTR inh,BJeLR viability,ugtP null kill,RN4220 kill,Bead autofluor,Mtb hypoxia rep,Mtb hypoxia rep growth
COC(=O)C1=C(c2ccc(Cl)c(C(F)(F)F)c2)CC2CCC1N2C(=O)NCc1ccco1 (stereo unspecified),/,/,-15,-5.0,/,0,0
O=C(NCC1CCCO1)c1c(O)c2c([nH]c1=O)CCCC2 (stereo unspecified),-76,17,-1,4.1,9208,11,10
CNc1oc(-c2cccc3ccccc23)nc1C#N,4,3,-16,3.6,3241,0,7
N#CCCN(C(=O)COC(=O)c1nc(Cl)ccc1Cl)c1ccccc1,-22,-4,1,1.9,?,5,-1
O=C(COC(=O)/C=C/c1ccccc1[N+](=O)[O-])NC(=O)NC1CCCC1,-11,/,3,3.9,7045,5,-2
O=C(O)c1ccc(-c2nc3ccccc3[nH]2)cc1,-12,2,/,/,2108,/,/
CC(=O)NN1C(=O)/C(=C/c2ccc(C(C)C)cc2)SC1=S,-14,9,11,-2.2,2672,1,14
COc1cc([N+](=O)[O-])ccc1NC(=O)CN(C)C,-8,-3,1,6.1,9165,1,2
N#Cc1cccn1-c1nccs1,0,4,16,5.0,3236,1,2
Oc1ccccc1C1=Nc2ncnn2C(c2ccccc2)C1 (stereo unspecified),-16,-3,-2,3.4,16346*,9,9
Cc1cc(C)c(C(=O)N2CCCC(C(=O)c3cc(F)ccc3F)C2)o1 (stereo unspecified),-61,-7,9,2.4,2314,5,-3
CN1/C(=C/c2cc[n+](C)c3ccccc23)C=Cc2ccccc21,-8,/,96*,100*,4250,22,3
CCSc1nc2c(cnn2-c2ccccc2)c(=O)n1N,-68,-2,-1,0.8,6131,0,1
COc1ccc(Cn2nnnc2C(c2cc3ccc(OC)cc3[nH]c2=O)N2CCC(C)CC2)cc1 (stereo unspecified),-25,-2,-4,1.6,31718*,2,4
Cn1cc(CN2CCC(n3nccc3NC(=O)CCc3ccccc3)CC2)cn1,-12,-5,2,1.4,4539,11,0
CN(CC(=O)Nc1cccc(F)c1)C(=O)Cn1c(=O)cnc2ccccc21,-12,6,3,2.3,5284,0,10
CCn1c2ccccc2c2cc(NS(=O)(=O)c3ccc(C)cc3)ccc21,-21,-5,-24,-2.7,2934,-4,-2
COCCNC(=O)c1ccc(C2SCC(=O)N2CCc2ccccc2)cc1 (stereo unspecified),-28,12,3,4.4,3287,-2,5
Cc1ccc2nc3c(cc2c1)c(NC(=O)C1CCCO1)nn3CC(C)C (stereo unspecified),-15,-6,-6,0.5,10427,-4,11
COc1ccc(-c2ccc(SCC(=O)Nc3nnc(C)s3)nn2)cc1,-63,1,10,3.9,3997,18,10
Cc1cc(C(C)(C)C)ccc1OCCN1CCCC1,5,4,22,2.9,3395,/,/
Cc1ccccc1Oc1nc2ccccc2n2cnnc12,-28,-8,15,6.7,4501,6,-5
COc1ccc(CC(=O)NCc2n[nH]c(=S)n2-c2cccc(Cl)c2)cc1,-28,3,-2,-0.1,4342,0,5
Cc1ccc(CCN2CC(C(=O)NCCCN3CCCCC3)CC2=O)cc1 (stereo unspecified),-4,-1,2,1.7,4176,8,-5
COc1ccc(-c2nc3ccccc3o2)cc1NC(=O)CSc1ccc(Cl)cc1,-42,9,7,11,2820,13,7

# Remaining list, next part
SMILES,PrP 5UTR inh,BJeLR viability,ugtP null kill,RN4220 kill,Bead autofluor,Mtb hypoxia rep,Mtb hypoxia rep growth
O=C(Nc1ccc(CN2CCOCC2)cc1)c1ccc(-c2cccc(Cl)c2)o1,-22,3,-9,0.9,20353*,2,6
CCCCCC(=O)NCC(C)NC(=O)CCCCC (stereo unspecified),1,-12,-4,-3.9,2502,3,-5
O=C(Nc1ccc(N2CCCC2)cc1)c1cccc(Cl)c1Cl,-36,-8,9,11,3500,10,9
Cc1cc(Br)ccc1NC(=O)C1C2CCC(O2)C1C(=O)O (stereo unspecified),-25,-2,/,/,3654,/,/
Cc1c(NC(=O)Nc2ccc3c(c2)OCO3)cccc1[N+](=O)[O-],-38,16,-6,1.4,4189,-5,0
COc1ccc(S(=O)(=O)N2CCC(C(=O)N3CCN(C)CC3)CC2)cc1Cl,-16,-6,8,6.4,3129,20,4
CN(c1ccccc1C(=O)O)S(C)(=O)=O,-9,-6,-7,7.1,18576*,2,10
O=C1[C@H]2[C@H](ON3CCCC[C@H]23)C(=O)N1c1cccc(C(F)(F)F)c1,-9,1,4,4.4,4905,-9,-15
O=C(c1cccs1)N1CCCC1,0,-6,-5,14,4482,11,10
CC1(C)Cc2c(sc3c2c(=N)n(Cc2ccco2)c(=O)n3CC(=O)Nc2ccc(Cl)cc2)CO1,-1,10,-17,-2.8,2674,/,/
CC(C)(C)C(=O)Nc1c(Br)c(C2CC2)nn1-c1ccccc1,/,-6,13,4.3,4373,1,-2
O=C(Nc1cc(SCC(O)CO)cc([N+](=O)[O-])c1)c1ccc(-n2cnnn2)cc1 (stereo unspecified),-21,1,-7,3.1,3809,-6,-8
Cc1cc(C)n(-c2ccc(F)cc2CN2CCN(C3CCCC3)C(CCO)C2)n1 (stereo unspecified),-13,-4,10,3.3,4781,-2,-10
CC1CCCN(C(=O)CN2C(=O)c3ccccc3S2(=O)=O)C1 (stereo unspecified),-26,/,2,2.5,3748,8,3
O=C(COC(=O)c1ccccc1[N+](=O)[O-])NCCCc1ccccc1,-7,2,8,1.3,3067,10,-3
CCn1cc(C(=O)Nc2ccc(F)c(F)c2)cn1,-12,12,0,3.4,7965,7,2
CC1Oc2cc3oc4c(O)c(O)ccc4c(=O)c3c(O)c2C1(C)C (stereo unspecified),-43,32,2,-1.6,5864,/,/
COc1cc(C(=O)OCn2nnc3ccccc3c2=O)cc(OC)c1OC,-7,-8,8,-0.1,3449,/,/
S=C(Nc1ccc(Cc2ccncc2)cc1)Nc1cccc(Cl)c1,-29,-9,5,-1.6,4639,-3,4
COC(=O)c1sc2ccccc2c1-n1cccc1C(=O)C(=O)Nc1ccc(F)cc1,-25,3,10,-6.2,4722,/,/
CCc1c(C)nc(SC(C(=O)O)c2ccccc2)c(C#N)c1C (stereo unspecified),-4,27,-9,1.2,10577,6,10
CCCCn1c(SCC(N)=O)nc2c(sc3ccccc32)c1=O,-3,3,1,-1.7,4154,16,1
Cc1ccc(S(=O)(=O)/N=C2/NC(=O)/C(=C\c3cc(Br)cc(Br)c3O)S2)cc1,-20,/,73,42,5535,15,16
N#Cc1nc(COc2ccccc2)oc1N1CCN(Cc2ccccc2)CC1,-15,-2,7,1.7,4305,19,14
Cc1cccc(NC(=O)[C@@H]2CCCN2C2=NS(=O)(=O)c3ccccc32)c1C,-33,/,-1,-1.3,4943,7,1

# Next structures:
SMILES,PrP 5UTR inh,BJeLR viability,ugtP null kill,RN4220 kill,Bead autofluor,Mtb hypoxia rep,Mtb hypoxia rep growth
COc1ccc(C(=O)CCC(=O)Nc2ccc(N3CCCCC3)cc2)cc1OC,-10,1,-5,0.1,4467,10,17
CCOCCCNC(=O)Cc1cc(=O)[nH]c(=O)[nH]1,-5,-5,2,5.8,5635,-5,9
O=C(NCCN1CCOCC1)c1ccc(-c2ccccc2)cc1,-4,-5,4,-3.5,20391*,9,5
COc1ccc(-c2noc3c2-c2nc(C4CCCCC4)sc2CC3)cc1,-49,-3,5,-0.5,3924,3,-3
COc1ccc2[nH]c(C)c(CCNC(=S)Nc3cc(C)cc(C)c3)c2c1,7,-6,-5,8.1,4322,-4,0
Cc1ccc(C(=O)COC(=O)CCC(=O)Nc2cc(Cl)ccc2Cl)cc1[N+](=O)[O-],-3,6,8,1.7,3491,/,/
CN(CCc1ccccc1)C(=O)c1cc(COc2ccc(F)cc2Cl)on1,-7,-2,-12,2.7,5612,0,8
COc1cc(NC(=O)C2CCCCC2)c(OC)cc1NC(=O)CN1CCCCC1,2,13,-8,-7.4,?,6,12
CN(C)c1cc2c3ccccc3n(C)c2cc1N,8,/,-10,4.1,3434,3,6
Cc1nc2c3ccccc3nc(SCC(=O)N3CC(C)CC(C)C3)n2n1 (stereo unspecified),-15,-7,-15,2.9,7778,16,2
Cc1ccc(OCc2nnc(SCC(=O)Nc3ccc4c(c3)OCCO4)n2Cc2ccco2)cc1,-9,2,4,-18,2257,3,-4
Cc1ccc(CN2CCC(Oc3ccc(C(=O)NCc4ccccn4)cc3)CC2)o1,-20,-8,3,1.4,?,1,12
CCN(C[C@H]1N[C@@](C)(C(=O)OC)[C@H]2C(=O)N(C)C(=O)[C@@H]12)C(=O)c1ccc(C)cc1,-7,/,2,2.7,3685,-6,-2
Cc1c(NC(=O)CSc2nnc(COc3ccccc3)n2-c2ccccc2)c(=O)n(-c2ccccc2)n1C,-5,2,8,3.7,3828,6,4
COc1cc(OC)c(C2=NOC(C(=O)Nc3c(C)n(C)n(-c4ccccc4)c3=O)C2)cc1Cl (stereo unspecified),-14,-3,5,11,3856,7,2
O=C(O)COc1ccc(/C=N/NC(=O)COc2nsnc2N2CCOCC2)cc1,-15,11,/,/,2679,/,/
Cc1ncc(CN2CCCC(C(=O)Nc3ccc(-c4ccco4)cc3)C2)cn1 (stereo unspecified),-13,9,4,3.6,3881,-7,-7
Cn1nc(Oc2nc(N3CCOCC3)nc(N3CCOCC3)n2)ccc1=O,-3,0,1,3.3,11248,4,5
CC(C(=O)c1c[nH]c2ccccc12)N1CCc2ccccc2C1 (stereo unspecified),-13,11,6,7.3,4326,10,11
Cc1csc(SCC(=O)Nc2ccc3c(c2)OCCO3)n1,-33,-7,4,2.7,4752,4,9
CCOc1nc(NC(=O)NS(=O)(=O)Oc2cccc(Cl)c2)nc(-c2ccccc2)n1,-18,/,3,4.9,1984,/,/
COc1ccc(N=C(C)C2=C(O)CSC2=O)cc1,-17,-14,0,1.0,6840,5,4
OCCN1CCN(CC/C=C2/c3ccccc3CSc3ccccc32)CC1,/,-1,1,3.0,/,7,4
CC1(c2ccccc2)CC(C)(C)N(C(=O)CSc2nnc(N)s2)c2ccccc21 (stereo unspecified),-15,-5,2,7.8,7675,5,10
O=C(O)C=C1C2CC3CC(C2)CC1C3,-21,7,-5,0.3,10101,8,9
CS(=O)(=O)N(Cc1ccco1)CC(O)Cn1cc(C=O)c2ccccc21 (stereo unspecified),-13,/,-1,-1.2,10857,-2,-1

# Results in PrP 5UTR inh, ugtP null kill and Mtb hypoxia rep growth, for 2 of the compounds above:
molecule | PrP 5UTR inh | ugtP null kill | Mtb hypoxia rep growth
COc1cc(OC)c(C2=NOC(C(=O)Nc3c(C)n(C)n(-c4ccccc4)c3=O)C2)cc1Cl (stereo unspecified) | -14 | 5 | 2
Cc1ccc(CN2CCC(Oc3ccc(C(=O)NCc4ccccn4)cc3)CC2)o1 | -20 | 3 | 12

# In the list so far, these contain an aryl methoxy group.
SMILES,PrP 5UTR inh,BJeLR viability,ugtP null kill,RN4220 kill,Bead autofluor,Mtb hypoxia rep,Mtb hypoxia rep growth
COc1cc([N+](=O)[O-])ccc1NC(=O)CN(C)C,-8,-3,1,6.1,9165,1,2
COc1ccc(Cn2nnnc2C(c2cc3ccc(OC)cc3[nH]c2=O)N2CCC(C)CC2)cc1 (stereo unspecified),-25,-2,-4,1.6,31718*,2,4
COc1ccc(-c2ccc(SCC(=O)Nc3nnc(C)s3)nn2)cc1,-63,1,10,3.9,3997,18,10
COc1ccc(CC(=O)NCc2n[nH]c(=S)n2-c2cccc(Cl)c2)cc1,-28,3,-2,-0.1,4342,0,5
COc1ccc(-c2nc3ccccc3o2)cc1NC(=O)CSc1ccc(Cl)cc1,-42,9,7,11,2820,13,7
COc1ccc(S(=O)(=O)N2CCC(C(=O)N3CCN(C)CC3)CC2)cc1Cl,-16,-6,8,6.4,3129,20,4
COc1cc(C(=O)OCn2nnc3ccccc3c2=O)cc(OC)c1OC,-7,-8,8,-0.1,3449,/,/
COc1ccc(C(=O)CCC(=O)Nc2ccc(N3CCCCC3)cc2)cc1OC,-10,1,-5,0.1,4467,10,17
COc1ccc(-c2noc3c2-c2nc(C4CCCCC4)sc2CC3)cc1,-49,-3,5,-0.5,3924,3,-3
COc1ccc2[nH]c(C)c(CCNC(=S)Nc3cc(C)cc(C)c3)c2c1,7,-6,-5,8.1,4322,-4,0
COc1cc(NC(=O)C2CCCCC2)c(OC)cc1NC(=O)CN1CCCCC1,2,13,-8,-7.4,?,6,12
COc1cc(OC)c(C2=NOC(C(=O)Nc3c(C)n(C)n(-c4ccccc4)c3=O)C2)cc1Cl (stereo unspecified),-14,-3,5,11,3856,7,2
COc1ccc(N=C(C)C2=C(O)CSC2=O)cc1,-17,-14,0,1.0,6840,5,4
